High-throughput results: PubChem BioAssay, ICCB-Longwood Screening Facility, Harvard Medical School
GIV Gai3 FP – inhibitors of GIV GBA-motif binding to rat Galpha-i3 | P08753 | Galpha-i3/FITC-GIV peptide fluorescence polarization, 90 min; active compounds read low; scaled: aluminum fluoride 0%, vehicle 100% | percent of control (FP), % (test concentration not listed) | hit rate 0.42% among 210,000 | AID 1224905;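 active means replicate mean at 85% of control or lower, very high polarization wells dropped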;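 further: lower values mean more displacement of the GIV peptide from Galpha-i3; wells of about 15 µL received 100 nL stock; the first replicate is given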
Target sequence (P08753 whole entry, looked up): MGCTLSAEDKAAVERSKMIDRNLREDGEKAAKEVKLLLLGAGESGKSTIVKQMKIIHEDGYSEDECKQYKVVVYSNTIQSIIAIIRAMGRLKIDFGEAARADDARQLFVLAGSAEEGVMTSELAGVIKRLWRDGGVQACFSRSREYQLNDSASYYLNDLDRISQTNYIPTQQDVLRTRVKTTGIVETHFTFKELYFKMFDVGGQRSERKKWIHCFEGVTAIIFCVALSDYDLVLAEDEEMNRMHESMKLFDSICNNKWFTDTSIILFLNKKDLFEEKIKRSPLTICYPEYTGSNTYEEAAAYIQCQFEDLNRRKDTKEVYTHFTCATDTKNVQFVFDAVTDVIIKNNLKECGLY
* = called active by the depositor; & = joins results of further samples. Only part of the results is shown; rates above refer to the full screens.

structure | GIV Gai3 FP
COc1ccc(/C=C/C(=O)C2(O)CCCCC2)cc1 | 103.3
COc1ccc(C(=O)N2c3ccccc3N3C(c4c(C)c(C)cc(C)c4C)=NON23)cc1 | 107.9
Cc1nn(-c2ccc3nnc(C)n3n2)c2c1C(c1cccc(OCc3cccc(Cl)c3)c1)CC(=O)N2 (centres undefined) | 99.6
Cc1nc(-c2cc(S(=O)(=O)NCc3ccccc3)c(C)s2)sc1C | 101.4
COc1ccc(CCC(=O)N(C)CCc2noc(C(=O)NCc3ccccc3)n2)cc1 | 105.4
O=C(O)c1cccc(NC2=C(N3CCOCC3)C(=O)c3ccccc3C2=O)c1 | 92.5
COc1ccc(C2Nc3cccc4cccc(c34)N2)cc1Br | 115.8
O=C1CC(c2cc(Br)ccc2F)c2cnn(-c3ccc(F)cc3)c2N1 (centres undefined) | 105.3
COc1cc(-n2c(C)nc3cc(C(=O)NCc4ccccn4)ccc32)cc(OC)c1OC | 119.0
CCn1c(SCc2nc(-c3ccccc3Cl)oc2C)nc2c(=O)[nH]cnc21 | 110.3
CCc1ccc(N/C(SCc2ccc(Cl)cc2)=C(/C#N)C(=O)NCc2ccco2)cc1 | 103.3
CCSC1=C(C#N)C(c2ccccc2)C(C(=O)Nc2ccccc2OC)=C(C)N1 (centres undefined) | 119.2
O=C(Nc1ccc2c(c1)Nc1ccccc1CC2)c1ccccc1 | 103.4
CC(C)(C)Nc1c(-c2ccccc2)nc2sc3ccccc3n12 | 95.9
CN(C)CC(=O)N1c2ccccc2CCc2ccc(NC(=O)c3ccccc3)cc21 | 112.5&103.1
O=S1(=O)N=CN(c2ccccc2F)c2ncccc21 | 105.1
CC(C)c1nnc(-c2ccc(S(=O)(=O)NC3CCCC3)o2)o1 | 108.8
CCOC(=O)C1=CN(Cc2ccc(F)cc2)C=C(C(=O)OCC)C1c1cc(Br)c(O)c(OCC)c1 | 102.3
CCn1c(=O)c2ccn(CC(=O)Nc3cccc(Cl)c3)c2n(CC)c1=O | 101.7
COc1ccc(OC)c(N(CC(=O)NCCSc2ccc(Cl)cc2)S(=O)(=O)c2ccccc2)c1 | 107.6
CCOC(=O)COc1ccc2c3c(c(=O)oc2c1)CCCC3 | 113.6
CCOCCCNC(=O)NCCC1CCN(C(=O)Nc2cccc(Cl)c2)CC1 | 105.7
COC(=O)c1cccc(N2C(=O)/C(=C/c3ccc(OC)cc3)C=C2c2ccccc2)c1 | 112.9
COc1ccccc1CC(=O)Nc1ccc(-c2noc(-c3ccc(Cl)cc3)n2)cc1 | 101.3
Cc1ccc(S(=O)(=O)Nc2ccc3oc4c(c3c2)C(=O)CCC4)c(C)c1 | 115.7
CCCn1c(SCc2nc(-c3ccc(F)cc3)no2)nc2cc3c(cc2c1=O)OCO3 | 105.6
CCC1CCCCN1S(=O)(=O)c1ccc(-c2onc(C)c2C)s1 (centres undefined) | 100.3
Cc1nn(-c2nc3ccccc3s2)c2c1C(c1ccc(F)c(Br)c1)CC(=O)N2 (centres undefined) | 104.5
Cc1ccc(F)cc1NC(=O)c1sc2ncn(CC(=O)Nc3cccc(C(F)(F)F)c3)c(=O)c2c1C | 106.6
CCCN1C(=O)c2ccccc2Sc2cc(NC(=O)CCc3c[nH]c4ccccc34)ccc21 | 105.8
Cn1nnc2cc(-c3noc(CNC(=O)c4ccccc4)n3)ccc21 | 107.4
Cc1cccc(-c2nc(C3CCN(C(=O)Cc4ccccc4Br)CC3)no2)c1 | 102.4
CCCN1CCN(c2ncnc3sc(C(=O)Nc4cc([N+](=O)[O-])ccc4OC)c(C)c23)CC1 | 116.2
O=C(c1ccc2ccnc(N3CCN(c4ccccc4F)CC3)c2c1)N1CCCC1 | 109.7
COc1ccccc1/C=C1\N=C(c2ccc(OC)c(OC)c2)N(c2ccc(Cl)c(Cl)c2)C1=O | 100.3
COC(=O)C1=NNC2C(=O)N(c3ccc(C)c(C)c3)C(=O)C12 (centres undefined) | 100.0
CC1CN(c2ncnc3c2cnn3-c2ccccc2Cl)CC(C)O1 (centres undefined) | 101.5
O=C(Cn1cnc2c(sc3ncccc32)c1=O)NC1CCCC1 | 105.0
CC1(C)c2ssc(=S)c2-c2ccccc2N1C(=O)c1ccccc1 | 113.7
CC(C)(C)C1CCc2c(sc3c2C(=O)NC(c2c4ccccc4cc4ccccc24)N3)C1 (centres undefined) | 99.5
Cc1nn(-c2ccc(-c3ccccc3)nn2)c(C)c1S(=O)(=O)Nc1ccc2c(c1)OCCO2 | 105.3
Cc1nn(-c2nc3ccccc3[nH]2)c2c1C(c1ccsc1)CC(=O)N2 (centres undefined) | 103.9
N#CC1=CN(c2cc(F)cc(F)c2)c2cc(Cl)ccc2S1(=O)=O | 100.2
COc1ccc(NC(=O)C2CCCN(c3ncnc4c3oc3ccccc34)C2)cc1OC (centres undefined) | 101.0
O=[N+]([O-])c1cccc(CSc2nc(NCc3ccco3)c3ccccc3n2)c1 | 98.5
CCN(CC)C(=O)c1cc2c(s1)CCC(C(=O)N1CCN(C)CC1)C2 (centres undefined) | 98.4
COc1ccccc1C(O)(C(=O)NNc1ccccc1C)c1ccccc1OC | 126.5
Cc1nc(N2CCN(c3cccc(Cl)c3)CC2)c2c3c(sc2n1)CCCC3 | 110.0
Cc1noc(C)c1C1CCCN1C(=O)Cn1nc(C(F)(F)F)cc1C (centres undefined) | 103.8
COc1ccccc1N=c1oc2ccc3ccccc3c2cc1-c1nc(-c2ccc(Br)cc2)cs1 | 109.6

(more compounds)
structure | GIV Gai3 FP
CCOC(=O)C1=C(N)OC2=C(C(=O)CC(C)(C)C2)/C1=C1\C=CC=CN1 | 97.7
O=C(N1CCOCC1)N1c2ccccc2CC(N2CCOCC2)c2ccccc21 (centres undefined) | 106.5
c1ccc(-c2ccc(-c3cs/c(=N\c4ccccn4)n3-c3ccccc3)cc2)cc1 | 98.4
CCCc1ccc(S(=O)(=O)Nc2ccc3nc(S(=O)(=O)CCC)sc3c2)cc1 | 103.8
CC1Cc2ccccc2N1C(=O)CCc1nc(-c2ccc(S(=O)(=O)N3CCOCC3)cc2)no1 (centres undefined) | 106.4
CCOc1ccc(N2C(=O)/C(=C/c3ccc(-c4ccc(Br)cc4)o3)C=C2c2ccccc2)cc1 | 110.1
Cc1ccc(Cl)cc1NC1=NC(=S)N(C(C)c2ccccc2)C12CCCCC2 (centres undefined) | 102.3
CCCc1cc(C2CCCN2C(=O)Cc2ccc(Cl)cc2)no1 (centres undefined) | 106.6
CC1=C(c2ccccc2)S(=O)(=O)N=C1N1CCC(NC(=O)NC(C)C)CC1 | 105.4
CC1(C)CC(=O)C2=C(C1)C(c1ccc(-c3cc([N+](=O)[O-])ccc3Cl)o1)Nc1ccc3ccccc3c12 (centres undefined) | 111.4
Cc1nc2ccccn2c(=O)c1NC(=O)c1ccccc1F | 100.5
CCCN1C(=O)COc2ccc(-c3noc(C4CCCO4)n3)cc21 (centres undefined) | 105.6
COC(=O)c1cc(C)nc2c1c(=O)nc(SCc1nc(-c3ccccc3C)oc1C)n2C1CC1 | 108.0
Cc1ccc(S(=O)(=O)CC(=O)Nc2sccc2C(N)=O)cc1 | 113.5
COc1ccc(N2C(C(C)=O)=NN(c3ccc(Cl)cc3)C2c2ccc(OCc3ccc(Cl)cc3)c(OC)c2)cc1 (centres undefined) | 107.5
CC(=O)OC(OC(C)=O)C12C=CC(O1)C1C(=O)N(c3cccc([N+](=O)[O-])c3)C(=O)C12 (centres undefined) | 109.4
Cc1cc(C)cc(-n2c(CN3CCN(C(=O)NCC(C)C)CC3)nc3cccnc32)c1 | 104.1
O=C(COC(=O)C(Cc1c[nH]c2ccccc12)NC(=O)c1ccc(Cl)cc1)c1ccccc1 (centres undefined) | 100.6
c1cc(N2CCCCC2)ncc1-c1noc(CN2CCOCC2)n1 | 99.7
CC(=O)c1cccc(N2C(=O)/C(=C/c3ccc([N+](=O)[O-])cc3)C=C2c2ccccc2)c1 | 125.2
NS(=O)(=O)c1ccc(CCNC(=O)c2ccc3c(c2)[nH]c(=S)n2c4ccccc4nc32)cc1 | 117.2
CCC1CCCCN1C(=O)Cn1c(=O)c2ccccc2n(CC)c1=O (centres undefined) | 113.0
CCc1ccc(S(=O)(=O)Nc2ccc3c(c2)nc(-c2ccc(C(=O)NC)cc2)n3C)cc1 | 104.9
Cc1nn(C)c(C)c1S(=O)(=O)N1CCCC(c2nnc(C(=O)Nc3cccc(Cl)c3)s2)C1 (centres undefined) | 101.9
O=C(C(Cc1ccccc1)N1C(=O)C2C3c4ccccc4C(c4ccccc43)C2C1=O)N1CCOCC1 (centres undefined) | 115.1

Molecules shown so far that contain a cyano group, in the order listed:
structure | GIV Gai3 FP
CCc1ccc(N/C(SCc2ccc(Cl)cc2)=C(/C#N)C(=O)NCc2ccco2)cc1 | 103.3
CCSC1=C(C#N)C(c2ccccc2)C(C(=O)Nc2ccccc2OC)=C(C)N1 (centres undefined) | 119.2
N#CC1=CN(c2cc(F)cc(F)c2)c2cc(Cl)ccc2S1(=O)=O | 100.2

Other compounds.
| mol | GIV Gai3 FP |
| --- | --- |
| Cc1ccc(C(=O)N2CCN(Cc3nc4cc(C(=O)N5CCCC5)ccc4n3C)CC2)cc1C | 105.4 |
| CC(=O)Nc1cc(-c2nc(-c3ccc4c(c3)nnn4CCC(=O)N3CCCC3)no2)ccc1C | 99.3 |
| COc1ccc(C2CC(c3ccc(Br)cc3)=NN2C(=O)CSc2nnc(CNC(=O)c3ccco3)n2C)cc1 (centres undefined) | 106.1 |
| COc1ccc(C2CC(=O)NC(SCC(=O)Nc3ccc(Br)cc3)=C2C#N)cc1 (centres undefined) | 107.6 |
| O=S(=O)(c1cc(-c2nnc(C3CC3)o2)co1)N1CCCC1 | 110.2 |
| S=c1sc2c(s1)SC1CC=CC1S2 (centres undefined) | 98.3 |
| Ic1ccc(-c2nc(-c3ccccc3)c(-c3ccc(-c4ccccc4)cc3)[nH]2)cc1 | 106.2 |
| O=C(Nc1c2c(nn1-c1ccc(F)cc1)CSC2)c1ccc(S(=O)(=O)N2CCOCC2)cc1 | 106.1 |
| Cc1cccc(-c2noc(-c3cccnc3N3CCC(C(=O)NCc4cc(F)cc(F)c4)CC3)n2)c1 | 110.5 |
| COc1cc(C2Nc3ccc(F)cc3[C@H]3OCC[C@@H]23)cc(Cl)c1OC (some centres undefined) | 96.1 |
| CCSc1nnc(-c2nn(C)c3c2CN(S(=O)(=O)c2ccc(C(C)C)cc2)CC3)n1C | 106.6 |
| COc1ccccc1C(=O)Nc1cc2c(cc1S(=O)(=O)C1CCCCC1)n(C)c(=O)c(=O)n2C | 99.9 |
| CC1CC(C)CN(S(=O)(=O)c2cccc3nsnc23)C1 (centres undefined) | 111.9 |
| Cc1nc2c(c3c1[nH]c1ccccc13)C(O)CC(C)(C)C2 (centres undefined) | 104.1 |
| Cc1ccc2nc(NC(=O)Cn3c(=O)n(C(C)C)c4ccc(-c5noc(C)n5)cc43)sc2c1 | 99.1 |
| O=C1CC(c2ccsc2)c2cnn(-c3nc4ccccc4s3)c2N1 (centres undefined) | 103.7 |
| C=CCn1c(=O)c(=O)n(Cc2ccc(C(=O)N3CCN(c4ncccn4)CC3)cc2)c2ccccc21 | 105.7 |
| CCN1CCN(Cc2c(O)ccc3c(=O)c(Oc4cc(C)cc(C)c4)c(C(F)(F)F)oc23)CC1 | 107.7 |
| Cc1c(C(=O)N2CCC3(CC2)OCCO3)sc2ncnc(N3CCC(C)CC3)c12 | 111.4 |
| CN(Cc1ccccc1)C(=O)c1cc(NC(=O)c2ccccc2F)cnc1N1CCNCC1 | 99.8 |
| Cc1cc2c(cc1C)NC1(CCCCC1C)C(=NCc1cccc(F)c1)N2 (centres undefined) | 97.7 |
| CCSc1nc2n(n1)C(c1ccc(NC(C)=O)cc1)C(C(=O)Nc1ccccc1C)=C(C)N2 (centres undefined) | 96.7 |
| Cc1cccc(C2(c3cccc(C)c3)CC2C(=O)Nc2cccc(Cl)c2C)c1 (centres undefined) | 119.9 |
| Cc1ccc2c(=O)c(-c3nc(-c4ccc(Cl)cc4)no3)cn(Cc3ccc(F)cc3)c2n1 | 149.3 |
| COc1cccc(-c2noc(-c3cc(N4CCSCC4)nc4ccccc34)n2)c1OC | 122.5 |

Quoted from the results shown, 2 compounds:
| mol | GIV Gai3 FP |
| --- | --- |
| Cc1ccc(C(=O)N2CCN(Cc3nc4cc(C(=O)N5CCCC5)ccc4n3C)CC2)cc1C | 105.4 |
| CC(=O)Nc1cc(-c2nc(-c3ccc4c(c3)nnn4CCC(=O)N3CCCC3)no2)ccc1C | 99.3 |

Next part:
| mol | GIV Gai3 FP |
| --- | --- |
| COC(=O)C(NC(=O)c1ccccc1)(Nc1sc2c(c1C#N)CCC(C(C)(C)C)C2)C(F)(F)F (centres undefined) | 111.3 |
| Cc1ccc(N2C(=O)C(N3C(=O)c4ccc([N+](=O)[O-])cc4C3=O)C2c2cccs2)cc1F (centres undefined) | 112.8 |
| Cc1cc(NS(=O)(=O)c2cc(-c3cc(C(F)(F)F)on3)cs2)ccc1Br | 98.8 |
| COc1cc(C2C(C(=O)OC(C)C)=C(C)NC3=C2C(=O)CC(c2cccs2)C3)cc(OC)c1OC (centres undefined) | 101.7 |
| O=C(Cc1cccs1)N1CCC(Oc2cc(N3CCCC3)ncn2)C1 (centres undefined) | 95.6 |
| Cc1cccc(C)c1NS(=O)(=O)c1c(C)sc(C)c1-c1cc(C(F)(F)F)on1 | 106.2 |
| CCOC(=O)C1=C(C(=O)OCC)SC(=C2C(=S)C(C)(C)N(C(=O)C(C)C)c3ccccc32)S1 | 106.6 |
| Cc1c(C)n(-c2ccccc2)c2nc(C(=O)Nc3ccc(F)c(F)c3)nc(N3CCCC3)c12 | 106.4 |
| CC(=O)c1oc2ccc3c(C)cc(=O)oc3c2c1-c1ccccc1 | 109.0 |
| COc1ccc2c(c1)c(=O)c1ccccc1n2CC(=O)Nc1cc(Cl)ccc1OC | 105.8 |
| O=C(Cc1ccsc1)N1CCC(Nc2ncnc3c2CCC3)C1 (centres undefined) | 97.9 |
| CCOC(=O)C1(C)/C(=N\Nc2ccc(S(N)(=O)=O)cc2)C(=O)C(=O)N1c1ccccc1 (centres undefined) | 102.9 |
| COc1ccc(Br)cc1C1Nc2ccc(C)cc2[C@H]2OCCC[C@@H]12 (some centres undefined) | 101.6 |
